# ClpP mod: qHTS Assay for Activators of ClpP. Potency, µM (doses to about 57.5 µM), for the others: at the top dose activity change, negative = active. purified B. subtilis ClpP, FRET peptide cleavage, 20 min. 1.9% of 340,000 active. ATP-dependent Clp protease proteolytic subunit (Bacillus subtilis (strain 168)), P80244; active = well fitted falling curve with a large enough effect; inconclusive = small, poorly fitted or top-dose-only effect; inactive = no such curve, though single readings can be large or run the other way; also: potency is read from the fitted curve at half-maximal effect; the source files actives as falling curves though it sought activators and does not explain the sign; nearly all actives have a fitted effect of over 65% in size; many hits overshoot -100%
# Target sequence (P80244 whole entry, looked up): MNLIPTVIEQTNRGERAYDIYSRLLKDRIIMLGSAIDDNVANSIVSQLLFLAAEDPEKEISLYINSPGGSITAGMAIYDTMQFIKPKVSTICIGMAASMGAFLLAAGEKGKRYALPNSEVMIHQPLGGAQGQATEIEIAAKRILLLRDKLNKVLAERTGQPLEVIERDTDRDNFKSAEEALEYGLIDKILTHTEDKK
#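 Purified B. subtilis ClpP, 10 microg/mL final in Tris/HCl pH8 with KCl, BSA, glycerol and Tween-20, cleaved an Abz/nitrotyrosine-quenched decapeptide. Fluorescence (ex 320, em 430) was read at 0 and 20 min at room temperature. Delta was normalized to 5.8 microM ADEP and DMSO/no-enzyme controls.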
# TRPV1 PAM: human TRPV1 potentiation; Q8NER1; TRPV1-expressing cells, Fluo-8 calcium influx, capsaicin EC20 potentiation; host cell line not named in the record; control for the full effect not named in the record; potentiation, % at 8.33 µM; 0.02% of 320,000 active; AID 540277; active means potentiation above 80%; inconclusive means 30% to 80%; inactive means below 30%; also: 0% is about no effect
# Target sequence (Q8NER1 whole entry, looked up): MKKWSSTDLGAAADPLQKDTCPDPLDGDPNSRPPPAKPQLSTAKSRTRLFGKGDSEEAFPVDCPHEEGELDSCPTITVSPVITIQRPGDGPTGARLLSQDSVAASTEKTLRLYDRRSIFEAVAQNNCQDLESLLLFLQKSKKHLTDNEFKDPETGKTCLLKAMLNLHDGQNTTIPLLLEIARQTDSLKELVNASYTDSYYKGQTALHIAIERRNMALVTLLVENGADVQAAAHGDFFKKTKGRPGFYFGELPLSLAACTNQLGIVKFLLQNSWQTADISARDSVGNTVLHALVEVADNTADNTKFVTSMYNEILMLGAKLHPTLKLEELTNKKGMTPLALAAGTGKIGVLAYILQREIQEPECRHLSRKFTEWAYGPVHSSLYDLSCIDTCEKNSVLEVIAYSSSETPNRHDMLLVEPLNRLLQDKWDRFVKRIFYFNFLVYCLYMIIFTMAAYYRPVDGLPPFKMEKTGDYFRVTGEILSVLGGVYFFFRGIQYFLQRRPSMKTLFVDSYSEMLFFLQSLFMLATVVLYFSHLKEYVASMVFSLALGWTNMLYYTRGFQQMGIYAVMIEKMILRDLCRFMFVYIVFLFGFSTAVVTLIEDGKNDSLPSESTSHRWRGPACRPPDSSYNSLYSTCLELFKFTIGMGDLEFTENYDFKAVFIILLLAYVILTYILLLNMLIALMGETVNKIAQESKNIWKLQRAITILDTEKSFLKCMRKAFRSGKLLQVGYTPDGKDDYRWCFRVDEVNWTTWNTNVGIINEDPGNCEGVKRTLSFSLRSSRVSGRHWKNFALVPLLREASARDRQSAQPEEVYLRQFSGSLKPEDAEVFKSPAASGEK
#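 Fluo-8 calcium influx in TRPV1-expressing cells, kinetic read (ex 480/em 520 nm). Compound added and read 3 min for agonist activity, followed by capsaicin at EC20 final and 2 min further read for enhancement.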
# Sfp PPTase inh: inhibitors of Bacillus subtilis Sfp phosphopantetheinyl transferase; Q9F4F7; Biochemical Sfp PPTase activity, qHTS; Potency, µM, for the others: max response, negative = inhibition, usual class: inhibitors; 3.5% of 310,000 active; AID 1490; active = well fitted inhibition curve with a large enough effect; inconclusive = small, poorly fitted or top-dose-only effect, or another doubt; inactive = no such curve, though single readings can be large or run the other way;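 also: the enzyme is Sfp with the accession as filed and its product quenches rhodamine fluorescence; potency is read from the fitted curve at half-maximal effect; 0% = enzyme reaction without inhibitor and -100% = no enzyme wells; top concentration of the series not given in the record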
#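 Fluorescence-quenching assay: 15 nM Sfp-PPTase preincubated 15 min at room temperature with compound, then 5 uM rhodamine-CoA and 12.5 uM BHQ-2-labelled YbbR peptide added. Fluorescence (ex 525/em 598 nm) read at start and after 30 min; difference gives rate.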
# gsp antagonist: antagonists of gsp mutant (McCune-Albright syndrome) | gsp-mutant cells, cAMP HTRF, 30 min; control for the full effect not named in the record | Potency, µM (top dose mostly 76.9 µM), for the others: at the top dose activity change, negative = inhibition, usual class: inhibitors | 0.4% of 340,000 active | AID 624288; active = falling curve of any shape with a large fitted effect; inconclusive = falling curve, mostly with a smaller effect; inactive = flat or rising curve; cell line not stated here;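 also: intracellular cAMP measured with PDE inhibitor Ro 20-1724 present during compound exposure; potency is read from the fitted curve at half-maximal effect; % is scaled to controls: 0 for no effect and ±100 for the full control effect; nearly all actives have a fitted effect of over 65% in size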
#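 HTRF cAMP read-out (cAMP-d2 plus anti-cAMP antibody-K in lysis buffer, 30 min RT). Before lysis, cells are exposed to compounds with […] for 30 min at 37C in DPBS containing Ca/Mg, BSA and Tween 20.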
# Menin-MLL FL inh: displaces fluorescein MLL peptide from human menin; Fluorescence polarization, fluorescein-MLL peptide displacement from menin; FP activity change, % at 61.4 µM; 290,000 tested, under 10 active; inconclusive = falling polarisation curve, or a change in total fluorescence; inactive = total fluorescence flat and polarisation flat or rising; no compound was filed as active; the % refers to the polarisation; negative = inhibition;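 also: % of control where 0% means no effect; inhibitors lower the polarisation; unlabelled MLL peptide was the positive control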
# gsp agonist: agonists of gsp mutant (McCune-Albright syndrome); gsp mutant cells, cAMP HTRF, 30 min; control for the full effect not named in the record; 0.13% of 340,000 active; Potency, µM (top dose mostly 76.9 µM), without a hit: at the top dose activation (cAMP increase), actives largely listed as activators; active = well fitted activation curve with a large enough effect; inconclusive = small, poorly fitted or top-dose-only effect, or another doubt; inactive = no such curve, though single readings can be large or run the other way; cell line not stated here;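 also: phosphodiesterase inhibitor Ro 20-1724 added with compounds to block cAMP breakdown; potency is read from the fitted curve at half-maximal effect; nearly all actives have a fitted effect of over 60% in size; about a fifth of the inactives were tested at one dose only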
#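 Cells stably selected in G418 were plated at 2000/well, grown 16-24 hr, then given compounds in DMSO with the PDE inhibitor […] (300 uM solution added) for 30 min at 37C; cAMP was read by HTRF.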
# CtBP-E1A blk: blocks the CtBP interaction with E1A; AlphaScreen GST-E1A/His-CtBP binding, 1536-well; stronger effect = lower value; control for the full effect not named in the record; activity change, % (test concentration not listed); 0.49% of 340,000 active; AID 651724; in the data active means activity change below about -65%; inconclusive means about -30% to -65%; inactive means above about -30%; also: % is scaled to controls: 0 for no effect and ±100 for the full control effect; compound concentration not given in the record
#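 GST-E1A and His-tagged CtBP (125 nM each as 5X stock) were preincubated with pin-transferred compound for 2 h at 37 °C in the dark, then glutathione donor and nickel acceptor beads were added for 1 h before AlphaScreen reading.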
# * marks the source's active call; other numbers are inactive results; ? = inconclusive; nt = not tested or not shown; & = joins results of further samples; [ ] = remark or other dose.
SMILES | ClpP mod | Sfp PPTase inh | CtBP-E1A blk | TRPV1 PAM | Menin-MLL FL inh | gsp agonist | gsp antagonist
CC(C)c1ccccc1NC(=S)NC(C)c1ccccc1 (stereo not given) | nt | 20% | -10 | -3 | 9.4 | 0%[15.4 µM] | 6%
CC1CCCCN1CCCNC(=O)c1nn(C)c2c1CS(=O)(=O)c1ccccc1-2 (stereo not given) | -11% | 0% | -4 | 10 | -1.1 | 21% | 29%
CC1(c2ccc([N+](=O)[O-])cc2)CC(C)(C)N(C(=O)c2ccccc2)c2ccccc21 (stereo not given) | nt | 6% | nt | -7 | 1.9 | nt | nt
COc1ccc(C(=O)N/C(=C/c2ccco2)C(=O)NC2CCS(=O)(=O)C2)cc1 (stereo not given) | nt | 7% | 2 | -2 | -8.5 | 6%[15.4 µM] | 2%
O=C(Nc1nc(-c2ccccn2)cs1)c1cccc(S(=O)(=O)N2CCOCC2)c1 | -3.9% | nt | nt | 2 | nt | ? | -16%
NC(=O)C1(C(N)=O)OC1c1ccc(Cl)cc1Cl (stereo not given) | 1.0% | 16% | 6 | 19 | -2.4 | 10% | -2%
C=CCN1C(=O)C(C)(C)N(C(=O)c2cccc([N+](=O)[O-])c2)c2ccccc21 | 1.8% | 11% | nt | 11 | -5.4 | -46%[inhibitor] | -19%
Cc1ccc(C)c(S(=O)(=O)Nc2ccc(-n3cnnn3)cc2)c1 | -2.1% | nt | -7 | nt | nt | -6%[15.4 µM] | -11%
CCn1c(SCC(=O)c2c(N)n(C3CC3)c(=O)[nH]c2=O)nnc1-c1ccccc1OC | -12% | nt | -5 | -3 | nt | -2% | 11%
O=S(=O)(Nc1ccc(O)cc1)c1cccc2cccnc12 | -0.2% | 20% | 1 | nt | 2.0 | -72%[inhibitor] | 3%
O=C(c1cccs1)N1CCc2ccccc2C1 | nt | -29% | 6 | 3 | -1.1 | 3%[15.4 µM] | 5%
COc1ccccc1CN1CC(C(=O)N(C)Cc2ccncc2C)CCC1=O (stereo not given) | -2.9% | 6% | 2 | 5 | nt | 3%[15.4 µM] | 9%
O=C(CCc1nnc(CCCCc2ccccc2)o1)N1CCN(CCO)CC1 | nt | 5% | -5 | -14 | 0.0 | -1%[15.4 µM] | 1%
O=C(c1cc2c(s1)-c1ccccc1S(=O)(=O)C2)N1CCN(Cc2ccccc2)CC1 | -5.0% | 12% | 0 | ? | 3.5 | -2% | -23%
O=C(Cc1ccsc1)NCC(=O)Nc1ccccc1Br | 0.1% | nt | -1 | nt | nt | -17% | 1%
CCCCCn1c(CNC(=O)CCC)nc2ccccc21 | -0.5% | 10% | -10 | -16 | 1.2 | -27% | 11%
COc1ccc(C(C)NC(=O)c2ccccc2Cl)cc1OC (stereo not given) | -0.5% | -3% | 12 | 1 | -6.3 | -15% | 11%
O=C(c1cc(-c2cccs2)on1)N1CCCCC1 | -1.6% | 0% | 2 | -14 | 1.4 | -25% | 2%
COCCNc1nnc(SCC(=O)c2cc(C)n(C3CC3)c2C)s1 | -3.5% | nt | -1 | nt | nt | -103%[inhibitor] | nt
Cc1cc(Cl)c(C)c(S(=O)(=O)N2CCN(C(=O)C3CCCO3)CC2)c1Cl (stereo not given) | 0.7% | nt | 2 | 4 | nt | -13% | 0%
CC(C)CCN1CCNC(=O)C1CC(=O)NCCCN1CCOCC1 (stereo not given) | -4.5% | -1% | 2 | -8 | -10 | -7% | 13%
CCC(CC)c1nnc(NC(=O)C2=COCCO2)s1 | nt | nt | 2 | -12 | nt | -9%[15.4 µM] | 4%
CCCOc1ccc(NC(=O)CC2C(=O)N(Cc3ccccc3)C(=S)N2Cc2cccs2)cc1 (stereo not given) | 0.2% | 9% | 5 | -15 | 5.2 | -10% | -20%
C[C@@H]1CN([C@@H](C)CO)C(=O)CCCn2cc(nn2)CO[C@H]1CN(C)S(=O)(=O)c1ccc(Cl)cc1 | -3.0% | nt | 0 | nt | nt | 13% | nt
CCOCc1nnc(NC(=O)c2cc(C(=O)OC)cc([N+](=O)[O-])c2)s1 | nt | 5% | 0 | 0 | 0.7 | 5%[15.4 µM] | ?
CCCCc1nc(NCc2ccccc2)c(C#N)c2c1CCCC2 | nt | -5% | 6 | 1 | 1.9 | -17% | 5%
COc1ccc2c(c1O)C(=O)c1ccccc1C2=O | nt | 0% | nt | 4 | -0.8 | nt | nt
CCC12CN(C(=O)c3ccc(C)cc3)CC(CC)(CN(C(=O)c3ccc(C)cc3)C1)C2=O | -0.1% | 23% | 2 | -2 | 4.8 | -4% | 3%
CCOC(=O)CNS(=O)(=O)c1cc(-c2n[nH]c(=O)c3ccccc23)ccc1C | 0.1% | 10% | -3 | 7 | -1.5 | 18%[15.4 µM] | 13%
O=C(CNc1n[nH]c(=O)[nH]c1=O)N/N=C/C=C/c1ccccc1 | 0.8% | 25% | nt | 1 | -1.2 | 15% | 6%
COc1cccc(CNC(=O)CN2C(=O)NC(Cc3ccccc3)(c3ccccc3)C2=O)c1 (stereo not given) | 0.2% | nt | 0 | ? | nt | -25% | -13%
Cc1ccc(SC(C)c2nc(-c3ccccc3)no2)cc1 (stereo not given) | -1.5% | 1% | 38 | -13 | 3.0 | -18% | ?
Cc1ccc(N(C)S(=O)(=O)c2cccc(C(=O)Nc3ccc(N4CCOCC4)cc3)c2)cc1 | -3.5% | nt | -24 | -5 | nt | 6% | -29%
CCCCSc1ncnc2[nH]ncc12 | 0.8% | -3% | nt | -4 | 0.4 | -1% | 10%
Cc1nc(NC(=O)CSc2nnc(C)n2CC2CCCO2)sc1C (stereo not given) | 0.5% | 8% | 5 | 1 | 0.5 | 5% | 13%
CCOC(=O)c1[nH]cc(-c2ccccc2)c1N1CCOCC1 | 1.2% | -101% | -7 | 4 | -0.2 | -2% | -5%
O=C(O)C(C(O)c1ccccc1)[n+]1ccccc1 (stereo not given) | -2.4% | nt | -23 | -7 | nt | nt | 11%
CCOC(=O)CSc1cn2c(n1)CCC2 | -0.2% | 40µM* | 6 | -1 | -2.5 | -29% | 6%
Cc1ccc(-n2nc3c(N4CCC(C(=O)NCCc5ccco5)CC4)nnc(C)c3c2C)cc1 | ? | 1% | -7 | -23 | nt | -31%[inhibitor] | -1%
O=C(CSc1nnnn1C1CCCCC1)Nc1nc2c(s1)CCCC2 | -1.5% | -20% | -3 | -14 | 3.7 | 25% | -12%
CCOC(=O)CN1C(=O)NC2(CCCc3ccccc32)C1=O (stereo not given) | nt | 5% | 4 | 4 | 0.5 | 18% | -1%
COCCNC(=O)Cn1nc(C(F)(F)F)c(Br)c1C | -0.9% | 14% | 10 | -9 | 3.7 | -4% | -1%
COc1cc(NC(=O)Cc2c(C(=O)O)[nH]c3ccccc23)cc(OC)c1OC | 0.5% | 12% | 7 | 6 | 2.4 | -28% | 0%
O=C(CSc1ccccc1)N1CCN(c2ccccc2)CC1 | -1.3% | 2% | -11 | -22 | 1.4 | 0% | 3%
O=C(Nc1ccc2ccccc2c1)N1CCCN(CCOc2ccccc2)CC1 | -20% | 8% | nt | 7 | -0.2 | -49%[inhibitor] | 3%
Cc1ccn2cc(C(=O)N3CCN(c4cnn(-c5ccccc5)c(=O)c4Cl)CC3)nc2c1 | -1.5% | nt | nt | -4 | nt | ? | -17%
Cc1nnnn1/C(=C\c1ccccc1)C(=O)OCC(=O)N1CC2(C)CC1CC(C)(C)C2 (stereo not given) | nt | 50µM* | -7 | 21 | 12 | -10%[15.4 µM] | -22%
Cc1ccc(C)c(S(=O)(=O)NCC(=O)NCc2ccco2)c1 | 1.6% | 4% | -2 | 1 | 5.3 | 13% | 8%
CC(=O)N1CSCC1C(=O)NNS(=O)(=O)c1cccc(C(F)(F)F)c1 (stereo not given) | -4.4% | -4% | -2 | -1 | 6.5 | 17%[15.4 µM] | 6%
COc1ccccc1N1CCN(CCC(=O)Nc2cccc(Cl)c2)CC1 | -1.9% | 0% | -15 | -17 | -7.4 | 0% | 1%
COC(=O)C1=C(C(=O)OC)[C@@H]2N(Cc3ccccc3)c3ccccc3[C@@]23C[C@@H](C(=O)OC)N(C(=O)COCc2ccccc2)C3=N1 | 2.1% | -7%&8% | -3 | ? | -6.5[11.7 µM] | nt | -9%
COc1ccc(S(=O)(=O)NCc2ccncc2)cc1OC | 1.7% | -1% | 6 | 17 | 2.7 | 1% | -2%
CCC(C)(C)NC(=O)C(c1ccc(C)cc1)N(CC1CCCO1)C(=O)CCC(=O)Nc1ccccn1 (stereo not given) | nt | 14% | 3 | 27 | -4.6 | 4% | -14%
CCCCn1nnnc1NCc1ccc(C)s1 | -0.1% | -3% | 6 | -23 | 1.1 | 0% | 1%
Cc1ccc2cc(CCNC(=O)c3cc4ccccc4o3)c(=O)[nH]c2c1C | -11% | -28% | -8 | ? | -2.4 | 6% | 35µM*
CCOC(=O)C1CCCN(C(=O)c2ccccc2SCCOC)C1 (stereo not given) | -0.7% | -11% | 13 | 2 | -7.0 | 22% | 6%
CN1Cc2cc(C(=O)c3ccccc3O)cnc2NC1=O | -14% | 3% | 6 | 5 | 7.5 | -4% | -22%
N#Cc1ccc(-c2nc3cc(C#N)c(C#N)cc3nc2-c2ccccc2)cc1C#N | nt | 13% | nt | 4 | 0.2 | nt | nt
CCC(C)(C)NC(=O)C(c1cccs1)N(CC1CCCO1)C(=O)Cn1nnc2ccccc21 (stereo not given) | 0.1% | 2% | 2 | 12 | 3.6 | 17% | 6%
COc1ccccc1Nc1nc(-c2ccccc2O)nc2ccccc12 | nt | -4% | 2 | -4 | -2.2 | 4% | -8%

# Reformatted with values under each structure: 3 of the compounds above.
# Every second line gives: ClpP mod | Sfp PPTase inh | CtBP-E1A blk | TRPV1 PAM | Menin-MLL FL inh | gsp agonist | gsp antagonist
Cc1ccn2cc(C(=O)N3CCN(c4cnn(-c5ccccc5)c(=O)c4Cl)CC3)nc2c1
 : -1.5% | nt | nt | -4 | nt | ? | -17%
Cc1nnnn1/C(=C\c1ccccc1)C(=O)OCC(=O)N1CC2(C)CC1CC(C)(C)C2 (stereo not given)
 : nt | 50µM* | -7 | 21 | 12 | -10%[15.4 µM] | -22%
Cc1ccc(C)c(S(=O)(=O)NCC(=O)NCc2ccco2)c1
 : 1.6% | 4% | -2 | 1 | 5.3 | 13% | 8%
